Bm FixLJ act: activators of Burkholderia fixLJ two-component system, primary screen, B. multivorans, GFP reporter; AID 1918990, 2023; actives 0.3% (n = 29,000); z-score (concentration not given with the values); B. multivorans fixK-promoter GFP reporter, 18 h; stronger effect = higher value;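 active = replicate mean overnight rise in green fluorescent reporter signal, 3 or more SD over negative controls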;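 note: score is relative to vehicle wells of the plate; 300 nL library stock went into each well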
* hit, by the source's call. Some of the compounds tested. The share of hits here may be higher or lower than overall.

| Compound | Bm FixLJ act |
| --- | --- |
| CCOC(=O)N1CCN(C(=O)CN(c2cc(C)ccc2OC)S(=O)(=O)c2ccc(C)cc2)CC1 | 1 |
| COc1ccc(OC)c(-c2cc(C(=O)NC(C)c3ccccc3)no2)c1 (stereo not given) | 1.5 |
| O=c1c2ccccc2nc(N2CCN(c3cccc(Cl)c3)CC2)n1-c1ccccc1 | 0.56 |
| Cc1cccc(OCc2nnc(-c3ccccc3)o2)c1 | -0.52 |
| COc1ccccc1-c1cc(C(=O)N2CCCCC2C)no1 (stereo not given) | -2.48 |
| CCOc1cc2sc(N3CCC(C(=O)Nc4cc(C)cc(C)c4)CC3)nc2cc1Br | -0.36 |
| Cc1cccn2c(CN3CC(O)C3)c(C(=O)N3CCCCC3)nc12 | -0.07 |
| CCCCN(CC)CCCNC(=O)Cn1ncc2c3ccccc3n(C)c2c1=O | -1.77 |
| Cc1ccccc1C(=O)Nc1c(C)nc(Nc2ccccc2)nc1Nc1ccccc1 | 0.88 |
| Cn1c(=O)c2cc(C(=O)NCCCN3CCN(c4ccccc4F)CC3)sc2c2ccccc21 | -1.44 |
| Cc1cc(Br)ccc1NC(=O)c1cc2c(=O)n(C)c3cc(Cl)ccc3c2s1 | -0.87 |
| O=C(C1CCOCC1)N1CC2OC(=O)N(CCc3cccc(Cl)c3)C2C1 (stereo not given) | -1.03 |
| CCOc1ccc(-n2c(Cc3ccccc3)nnc2SCc2nc(-c3cccs3)no2)cc1 | -0.99 |
| COc1ccc(NC(=O)c2c(N)c(C(=O)c3ccc(OC)cc3)n3ccccc23)cc1 | -0.54 |
| COc1ccccc1NC(=O)C1=C(C)Nc2nc(-c3ccco3)nn2C1c1ccccc1 (stereo not given) | -0.82 |
| N#Cc1ccccc1C(=O)N1CCc2onc(-c3ccc(F)c(F)c3)c2C1 | -0.64 |
| CCN(CC)S(=O)(=O)c1ccc2c(c1)c(=O)c(C(=O)NCCc1ccccc1)cn2C | -0.15 |
| CCOc1ccc(Cn2c(=O)sc3ccccc32)cc1 | -1.19 |
| COc1ccccc1Cn1cc(C(=O)c2ccc(C)cc2)c(=O)c2cc(C)ccc21 | 0.59 |
| Cc1noc(C)c1CN1CC2(CCN(C(=O)C(C)O)CC2)CC1=O (stereo not given) | -0.14 |
| CCOC(=O)C1CCN(CCC(=O)Nc2ccc(OC)cc2)CC1 | -2.68 |
| Cc1cccc(NC(=O)Cn2ncc3c4ccccc4n(Cc4ccccc4)c3c2=O)c1C | -1.26 |
| Cc1ccnc(NS(=O)(=O)c2ccc(NC(=O)c3nc(SC(C)C)ncc3Cl)cc2)n1 | -0.8 |
| Cc1nc(=O)[nH]c(C)c1CCC(=O)N1CCCC1c1nccs1 (stereo not given) | 0.5 |
| Cc1ccc(C(=O)c2oc3ccccc3c2NC(=O)c2nc(S(C)(=O)=O)ncc2Cl)cc1F | -0.81 |
| O=C(NCc1csc(-c2cccs2)n1)C1CC(=O)N(Cc2ccccn2)C1 (stereo not given) | 0.44 |
| Cc1ccc2nc(-c3c[nH]c4ccccc34)c(Nc3ccc(F)cc3)n2c1 | -0.9 |
| Cc1ccccc1CSc1nc2c(sc3ccccc32)c(=O)n1CCCC(=O)NCCCOC(C)C | 0.99 |
| CCOCCCNC(=O)C(c1ccc(Cl)cc1)N(Cc1ccc2c(c1)OCO2)C(=O)c1ccc(NC(C)=O)cc1 (stereo not given) | 1.33 |
| CCC(=O)N1CCc2cc(Br)cc(S(=O)(=O)Nc3ccccc3C(=O)OC)c21 | 2.69 |
| CCN(CCCNC(=O)c1nn(-c2ccc(C)cc2)c(=O)c2c1c1ccccc1n2C)c1ccccc1 | -0.17 |
| CCC(C)S(=O)(=O)c1oc(-c2cccs2)nc1S(=O)(=O)c1ccccc1 (stereo not given) | -1.77 |
| O=C(NCc1ccc(F)cc1)c1ccc2c(Cl)c3c(nc2c1)CCCC3 | 1.98 |
| Cc1ccc(-c2nc(C)c(C(=O)O)cc2C#N)c(-n2cccn2)c1 | 0.22 |
| CCc1ccc(NC(=O)C2CCC(CNS(=O)(=O)c3cccs3)CC2)cc1 (stereo not given) | -0.82 |
| CC(=O)Nc1cccc(-c2nnc(SCC(=O)c3cc([N+](=O)[O-])ccc3Br)o2)c1 | -2.64 |
| COc1cc2c(cc1OC)C1(CCN(C(=O)c3cccc(-c4cn[nH]c4)c3)CC1)OCC2 | 1.07 |
| COc1ccc(-c2cc(C(=O)Nc3cccc(C(C)=O)c3)no2)cc1OC | -1.59 |
| Cc1ccccc1-n1nc(CO)c(C(=O)NCc2cccnc2)n1 | -1.55 |
| Fc1ccc(Nc2ncnc3onc(-c4ccc(Cl)cc4)c23)cc1Cl | -1.76 |
| Cc1cccc(NS(=O)(=O)c2ccc3c(c2)CCN3C(=O)C2CCC2)c1 | -0.57 |
| Cc1cc(C)c2c(CC(=O)Nc3nnc(C(C)C)s3)coc2c1 | -1.45 |
| COCCn1c(COc2ccccc2C(=O)N(C)C)nnc1C1CC(N)C1 (stereo not given) | -1.04 |
| CC(C)(C)C1CCc2c(sc(NC(=O)c3ccc(Cl)cc3)c2C(=O)NCc2ccco2)C1 (stereo not given) | -0.13 |
| CCOc1ccccc1NC(=O)C(C)n1nnc2sc3c(c2c1=O)CCCC3 (stereo not given) | 1.72 |
| COc1cccc2c1OCC(C(=O)NCc1sc(C)nc1C)C2 (stereo not given) | 0.2 |
| COC[C@@]12CCC(N3CCOCC3)CC1CCN(C(=O)CCS(C)(=O)=O)C2 (stereo not given in full) | -1.72 |
| CCS(=O)(=O)c1nc(S(=O)(=O)c2ccc(C)cc2)c(NCC(C)C)s1 | 0.22 |
| Cc1ccc(C(=O)NC2CCN(Cc3cccnc3)CC2)cc1OCCN | -2.59 |
| O=C1CC(C(=O)N2CCC(c3n[nH]c(=O)n3Cc3ccccc3)CC2)CN1 (stereo not given) | 0.44 |
| CCCc1nnc(NC(=O)CN2CCC(c3nnc4ccccn34)CC2)s1 | -1.68 |
| CC(C)N1CC2(CCCN(c3nccc(N)n3)C2)CCC1=O (stereo not given) | -0.58 |
| Cc1cccc(C)c1NC(=O)CSc1nccn1C | -2.51 |
| COc1ccc(Br)cc1CNC(=O)C1CCN(c2nnc(-n3cccc3CNc3ccc(C)cc3)s2)CC1 | -1.7 |
| CCC(=O)N1CCc2cc(S(=O)(=O)NC(Cc3ccccc3)C(=O)NCc3ccc(F)cc3)ccc21 (stereo not given) | -2.01 |
| COc1ccc(-c2c3c(=O)n(C)c(=O)n(C)c3c3c(-c4ccc(C)cc4)nc4ccccc4n23)cc1 | -2.02 |
| Cc1nccn1CCCN1CCCN(C(=O)c2cncc(F)c2)CC1 | -1.84 |
| COc1ccc(-c2cc3nc(C)c(CCC(=O)Nc4cccc(C(F)(F)F)c4)c(C)n3n2)c(OC)c1 | 0.22 |
| CCc1ccc2occ(CC(=O)Nc3ccc(OC)c(Cl)c3)c2c1 | 0.95 |
| CC(C)(C#N)c1cc(Cn2cncn2)cc(C(C)(C)C#N)c1 | -1.86 |

Compounds from the list above containing a thiophene ring, fused or not:
| Compound | Bm FixLJ act |
| --- | --- |
| Cn1c(=O)c2cc(C(=O)NCCCN3CCN(c4ccccc4F)CC3)sc2c2ccccc21 | -1.44 |
| Cc1cc(Br)ccc1NC(=O)c1cc2c(=O)n(C)c3cc(Cl)ccc3c2s1 | -0.87 |
| CCOc1ccc(-n2c(Cc3ccccc3)nnc2SCc2nc(-c3cccs3)no2)cc1 | -0.99 |
| O=C(NCc1csc(-c2cccs2)n1)C1CC(=O)N(Cc2ccccn2)C1 (stereo not given) | 0.44 |
| Cc1ccccc1CSc1nc2c(sc3ccccc32)c(=O)n1CCCC(=O)NCCCOC(C)C | 0.99 |
| CCC(C)S(=O)(=O)c1oc(-c2cccs2)nc1S(=O)(=O)c1ccccc1 (stereo not given) | -1.77 |
| CCc1ccc(NC(=O)C2CCC(CNS(=O)(=O)c3cccs3)CC2)cc1 (stereo not given) | -0.82 |
| CC(C)(C)C1CCc2c(sc(NC(=O)c3ccc(Cl)cc3)c2C(=O)NCc2ccco2)C1 (stereo not given) | -0.13 |
| CCOc1ccccc1NC(=O)C(C)n1nnc2sc3c(c2c1=O)CCCC3 (stereo not given) | 1.72 |

The results go on:
| Compound | Bm FixLJ act |
| --- | --- |
| Cc1ccc(N2CC(c3nnc(Cc4ccc(F)cc4)o3)CC2=O)cc1 (stereo not given) | -0.79 |
| COc1ccc2oc(=O)c(-c3nnc(-c4ccc(C)cc4)o3)cc2c1 | -0.17 |
| COc1ccc(CN(C(=O)c2cc3ccccc3oc2=O)C2CCS(=O)(=O)C2)cc1 (stereo not given) | -0.94 |
| Cn1cnc2cc(C(=O)N3CC(C(=O)O)C(c4ccccc4)C3)ccc21 (stereo not given) | -0.74 |
| Cc1ccccc1NC(=O)Cn1c(=O)n(CCc2ccccc2)c(=O)c2sc3ccccc3c21 | -2.73 |
| COC(=O)c1cc(NC(=O)CN(c2ccccc2)S(=O)(=O)N(C)C)ccc1Cl | -1.36 |
| CC(=O)Nc1ccc(-c2nnc(SCC(=O)c3ccc([N+](=O)[O-])cc3)o2)cc1 | -2.68 |
| CC(=O)Nc1ccc(S(=O)(=O)Nc2onc(C)c2C)cc1 | 0.68 |
| COc1cc(C2c3c(-c4ccc(C)cc4)n[nH]c3C(=O)N2c2ccc(F)cc2)ccc1O (stereo not given) | -1.59 |
| COc1ccc(-c2c(C)nn3c(N4CCN(c5ccccc5F)CC4)cc(C)nc23)cc1OC | -0.31 |
| O=C(CCc1nc(-c2ccccc2F)no1)NC1CCCN(Cc2cccs2)C1 (stereo not given) | 0.79 |
| Cc1ccn2c(Nc3ccc4c(c3)OCCO4)c(-c3ccc(C)o3)nc2c1 | -1.47 |
| Cc1coc2c(C)c3oc(=O)c(CCC(=O)N4CCCCC4)c(C)c3cc12 | -2.17 |
| CCn1c(=O)cc(SCC(=O)NCc2ccc(C)cc2)c2ccccc21 | 0.53 |
| COc1cccc(NC(CNS(=O)(=O)c2ccc(C)cc2)c2ccccc2)c1 (stereo not given) | 1.02 |
| O=C(Nc1cccc(F)c1)[C@H](CSCc1ccccc1)N1Cc2ccccc2C1=O | 1.73 |
| CN(Cc1noc(C2CC2)n1)Cc1cc2cc(F)ccc2[nH]1 | 1.2 |
| Cc1ccc2cccc(NC(=O)C(C)Oc3ccc(Cl)cc3Cl)c2n1 (stereo not given) | -1.37 |
| CC(=O)c1ccc(N2CCN(C(=O)CCCn3c(=O)[nH]c4ccsc4c3=O)CC2)cc1 | -0.43 |
| COc1ccc(-c2cc(C(=O)Nc3ccc(C#N)cc3)no2)cc1 | -1.4 |
| CSc1ncc(Cl)c(C(=O)Nc2ccc(S(=O)(=O)N3CCC(C)CC3)cc2)n1 | -1.3 |
| CCOc1ccc(NC(=O)CCS(=O)(=O)c2ccc3c(c2)n(C)c(=O)c(=O)n3C)cc1 | -0.6 |
| CC(=O)NCCNc1nc2c(-c3cccc(C)c3)nnn2c2ccc(Cl)cc12 | -0.61 |
| CCn1c2ccccc2c2cc(CN3CCN(Cc4ccccc4C)CC3)ccc21 | 0.52 |
| CCOc1ccc(C(=O)c2cn(CC(=O)Nc3ccc4c(c3)OCCO4)c3ccc(OC)cc3c2=O)cc1 | -0.28 |
| Cc1onc(-c2c(Cl)cccc2Cl)c1C(=O)N[C@@H]1C(=O)N2[C@@H]1SC(C)(C)[C@@H]2C(=O)O | -0.93 |
| COC(=O)c1cccc(-n2c(CCC(=O)O)ccc2-c2ccc(OC)cc2)c1 | -0.92 |
| CCOc1cc(C2C(C(=O)OC)=C(C)NC3=C2C(=O)c2ccccc23)c(Br)cc1OC (stereo not given) | -0.22 |
| CCCCNC(=O)CN1C(=O)COc2ccc(S(=O)(=O)N3CCCC3)cc21 | -1.54 |
| CC(C)(O/N=C(\C(=O)N[C@@H]1C(=O)N2C(C(=O)[O-])=C(C[n+]3ccccc3)CS[C@H]12)c1csc(N)n1)C(=O)O | -5.6 |
| CC1CCc2c(sc(NC(=O)c3cc(-c4cccc(Cl)c4)on3)c2C(N)=O)C1 (stereo not given) | -1.66 |
| Cc1cccc2c1-c1sc(C(=O)NCCc3ccc(Cl)cc3)cc1CO2 | -1.99 |
| CCCCC(C#N)(Cn1cncn1)c1ccc(Cl)cc1 (stereo not given) | -1.8 |
| Cc1nc2nc(C)c(CCC(=O)NCCc3ccccc3)c(C)n2n1 | -0.12 |
| Clc1cccc(N2CCN(c3nc4ccccc4n4nnnc34)CC2)c1 | 0.06 |
| Cc1ccc(-c2nc3ccccc3[nH]2)cc1NC(=O)COc1ccc(Cl)cc1Cl | -1.7 |
| O=C(CCCCCn1c(=O)c2sccc2n(CC(=O)Nc2cc(C(F)(F)F)ccc2Cl)c1=O)NCc1ccccc1Cl | 0.49 |
| CC1CCN(C(=O)c2cc3c(=O)n(C)c4cc(Cl)ccc4c3s2)CC1 | 0.61 |
| COc1cc(CCNC(=O)c2cc(C(C)(C)C)[nH]c(=O)n2)cc(OC)c1 | -0.41 |
| O=C(c1ccc(C(F)(F)F)cc1)N1CCC(c2nc(-c3ccc(S(=O)(=O)N4CCCC4)cc3)no2)CC1 | -1.55 |
| Cc1ccc2nc(-c3ccc(Cl)cc3)cc(C(=O)OCC(=O)c3ccccc3)c2c1 | 0.48 |
| COC(=O)c1cc(NC(=O)CCc2c(C)nc3cc(-c4ccccc4)nn3c2C)cc(C(=O)OC)c1 | 1.1 |
| Cc1cc(C)c(Cn2c3ccccc3c3cnn(CC(=O)NC4CCCCCC4)c(=O)c32)c(C)c1 | 1.5 |
| O=C(CCn1cncn1)N1CCCC(c2nccn2Cc2ccccn2)C1 (stereo not given) | 0.79 |
| O=C(Cc1ccc(-n2cnnn2)cc1)NCCCn1ccnc1 | 0.4 |
| CCOc1ccc(NC(=O)c2cc(=O)c3cc(CC)ccc3o2)cc1 | -1.47 |
| CO[C@H]1C[C@H](O[C@H]2[C@H](C)[C@@H](OC3O[C@H](C)C[C@H](N(C)C)[C@H]3O)[C@@H](C)C[C@]3(CO3)C(=O)[C@H](C)[C@@H](O)[C@@H](C)[C@@H](C)OC(=O)[C@@H]2C)O[C@@H](C)[C@@H]1O (stereo not given in full) | 0.4 |
| Cc1nn(CCC(=O)NC2CCC(NC(=O)c3cnc4ccccc4n3)C2)c(C)c1C (stereo not given) | -0.91 |
| COc1cccc(-c2cc(C(F)(F)F)nc(NCCc3ccc(OC)c(OC)c3)n2)c1 | -1.38 |
| Oc1ccccc1Nc1nc2ccccc2n2nnnc12 | 0.38 |
| COc1ccc(N(C)S(=O)(=O)c2ccc3c(c2)CCN3C(=O)CCC(=O)O)cc1 | 0.04 |

High-throughput results from PubChem.
